Screening results as filed in PubChem BioAssay.
FGF22 binding: binders of human FGF22 protein, primary screen, FGF22 synaptogenesis inhibitor project, biophysical, thermal shift, single point; 340,000 compounds, 1.5% hits; AID 651658, 2012; calls only at 9.99 µM; recombinant FGF22 thermal shift, SYPRO orange fluorescence; percent of sucrose octasulfate shift, DMSO zero; Fibroblast growth factor 22 (Homo sapiens), Q9HCT0;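 active = melting point raised past a set limit in the mean and every replicate; three in four hits are not shown here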
Target sequence (Q9HCT0 whole entry, looked up): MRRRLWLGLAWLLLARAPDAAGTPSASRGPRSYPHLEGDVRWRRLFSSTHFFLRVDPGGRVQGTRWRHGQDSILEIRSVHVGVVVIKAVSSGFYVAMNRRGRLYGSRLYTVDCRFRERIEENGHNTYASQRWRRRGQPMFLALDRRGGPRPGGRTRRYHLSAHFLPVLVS
Beta cell apopt: inhibitors of cytokine-induced beta cell apoptosis, primary screen, luminescence. INS-1E cytokine-induced death, ATP luminescence, 48 h; percent of positive-control rescue, neutral wells zero. protection from apoptosis, % (test concentration not listed). 300,000 compounds, 0.8% hits. AID 435005, 2010;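 active = all replicates at 75% or more, or half of them and the mean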;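 also: 0% = cytokine-treated negative control wells and 100% = positive control rescue; higher means more ATP so stronger rescue from cytokine killing; wells of about 40 µL received 100 nL stock; the first replicate is given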
Ecoli growth: E. coli growth inhibition, primary screen, OD600. OD600 absorbance (no concentration beside the values). 330,000 compounds, 0.21% hits. Escherichia coli growth, 23 h; hits give low values;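 active = OD600 absorbance below the run mean of sample wells minus 3.6 SD, in any replicate, cut at about 0.56 in these data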;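 also: stock transfer was 300 nL into about 60 µL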
rRNA inh HTS: reduced GFP signal of wild-type E. coli, primary screen, bacterial rRNA inhibitor project, GFP/RFP fluorescence, OD600, single point; E. coli WT GFP vs humanized-ribosome RFP mutants, 24 h; hits give low values; DMSO median 0, no signal -100; GFP signal change (wild-type ribosome), % (concentration not given with the values); 350,000 compounds, 1.6% hits; AID 720706, 2013;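 active = significant combined selectivity score with lowered wild-type GFP, culture density cut under 30%, mutant RFP and density less affected; inactive = any of these conditions unmet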; also: one replicate is shown; some compounds called inactive have numbers as strong as hits
Bfl-1 A1 inh: caspase 3/7 activation in MEF A1-2A-BIM cells, primary screen, A1 inhibitor project, cell-based, luminescence, HTS. AID 2462, 2010. caspase activation, % (test concentration not listed). 330,000 compounds, 0.066% hits. Caspase-Glo 3/7 luminescence, 3 h; percent of clofoctol response, vehicle zero;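 active = over half of replicate activation scores above 10%, or exactly half above 10 with the replicate mean above 10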;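 also: wells of about 30 µL received 50 nL stock; many hits fall short of the cut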
T cruzi repl: inhibitors of intracellular T. cruzi growth, primary screen, luminescence, NIH3T3 host cells; T. cruzi beta-gal in NIH3T3, 90 h; inhibition, % (test concentration not listed); 300,000 compounds, 1.4% hits; AID 1885, 2009;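 active = mean inhibition across valid replicates above about 55%, limit read from the data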;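 also: signal also drops with host cell toxicity which is not excluded here; 0% = plate median of DMSO wells and 100% = zero luminescence signal; higher percent means less beta-gal luminescence so fewer parasites; stock transfer was 50 nL into about 50 µL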
UCH37 DUB inh: inhibitors of human UCH37 deubiquitinase, primary screen, biochemical, Ub-AMC cleavage, fluorescence. Ubiquitin carboxyl-terminal hydrolase isozyme L5 (Homo sapiens), Q9Y5K5. purified proteasome/UCH37. inhibition, % (no concentration beside the values). 330,000 compounds, 0.33% hits;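 active = mean of two replicates above 20%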;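 also: 0% = compound-free wells with enzyme and 100% = wells lacking proteasome; stock transfer was 100 nL into about 20 µL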
Target sequence (Q9Y5K5 whole entry, looked up): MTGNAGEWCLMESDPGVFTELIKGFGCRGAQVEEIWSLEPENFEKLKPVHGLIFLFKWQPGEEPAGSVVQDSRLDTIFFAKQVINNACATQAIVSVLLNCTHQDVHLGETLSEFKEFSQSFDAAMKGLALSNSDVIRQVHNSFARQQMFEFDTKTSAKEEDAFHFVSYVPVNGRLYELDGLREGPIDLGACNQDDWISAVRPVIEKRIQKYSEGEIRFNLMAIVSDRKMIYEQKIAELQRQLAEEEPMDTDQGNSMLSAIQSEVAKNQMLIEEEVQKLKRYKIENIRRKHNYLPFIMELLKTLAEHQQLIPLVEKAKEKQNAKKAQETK
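Material: Human UCH37 enzyme supplied as purified proteasome complex | Schedule: 30 min preincubation with enzyme, 25 min cleavage at room temperature | Detection: AMC fluorescence 355/460 nm | Measure: % inhibition of Ub-AMC cleavage fluorescence | Controls: Wells without proteasome as full block, compound-free enzyme plus substrate as uninhibited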
AF4-AF9 inh: inhibitors of AF4 peptide binding to AF9, primary screen, biochemical, AlphaScreen, biotin-AF4 peptide, FLAG-AF9, single point | Protein AF-9 (Homo sapiens), P42568 | inhibition, % at 10 µM | 350,000 compounds, 0.47% hits | AID 651704, 2012;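 active = every replicate reaching a set inhibition limit, whatever the replicate mean, cut at about 25% in these data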;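 also: 0% = plate neutral control median and 100% = total signal loss; the record names both 10 and 1 µM as test concentration; the first replicate is given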
Target sequence (P42568 whole entry, looked up): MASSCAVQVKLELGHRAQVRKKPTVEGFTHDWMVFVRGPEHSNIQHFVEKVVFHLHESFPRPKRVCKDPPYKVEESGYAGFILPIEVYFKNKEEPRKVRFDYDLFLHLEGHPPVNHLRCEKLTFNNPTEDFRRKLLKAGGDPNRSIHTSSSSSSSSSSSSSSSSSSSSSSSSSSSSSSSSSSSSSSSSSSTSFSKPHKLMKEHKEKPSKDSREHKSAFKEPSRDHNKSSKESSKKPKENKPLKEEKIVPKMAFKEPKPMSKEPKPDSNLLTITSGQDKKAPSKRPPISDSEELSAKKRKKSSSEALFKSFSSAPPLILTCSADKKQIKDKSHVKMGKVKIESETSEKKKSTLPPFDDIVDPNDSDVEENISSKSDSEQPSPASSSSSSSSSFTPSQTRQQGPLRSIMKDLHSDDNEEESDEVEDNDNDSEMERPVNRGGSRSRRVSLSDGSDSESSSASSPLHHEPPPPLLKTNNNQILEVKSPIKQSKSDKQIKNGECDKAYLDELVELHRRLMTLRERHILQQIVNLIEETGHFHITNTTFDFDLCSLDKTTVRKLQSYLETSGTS
rRNA inh HTS OD600: recorded beside rRNA inh HTS, whose call it bears; OD600 change, %; measured here: OD600 growth;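 optical density of the mix in the first replicate; 0 = DMSO median and -100 = no signal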
rRNA inh HTS RFP: also measured in rRNA inh HTS; calls as there; RFP signal change, %; measured here: RFP humanized mutant strains;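 first replicate; 0 = DMSO median and -100 = no signal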
* = called active by the depositor; i = inactive; . = not tested or not shown; + = active, no number. This is a subset; count on the stated rates, not on these rows.

SMILES	FGF22 binding	Beta cell apopt	Ecoli growth	rRNA inh HTS	rRNA inh HTS OD600	rRNA inh HTS RFP	Bfl-1 A1 inh	T cruzi repl	UCH37 DUB inh	AF4-AF9 inh
Cc1nn(-c2ccccc2)c(C)c1C(=O)Nc1nnc(-c2ccco2)o1	.	4	0.68	.	.	.	0.7	-19	4.2	.
CCOc1ccccc1C(=O)Nc1ccc(S(=O)(=O)Nc2nccc(C)n2)cc1	i	-2	0.71	19	19	2.2	-0.9	-2	4.7	0.4
CC1=NN(C(N)=S)C(=O)C1N=Nc1ccc(Cl)cc1 (centres undefined)	i	26	0.7	6	7	1.6	-10	-20	8.0	0.4
Cc1ccc(/C=C2\SC(=S)N(CCC(=O)Nc3cccnc3)C2=O)cc1	i	.	0.74	7	14	0.8	0.6	2	2.8	-3.0
COc1ccccc1C(=O)NC(=O)COc1cc(Cl)ccc1Cl	i	-3	0.68	13	10	1.6	1.9	-11	1.8	-1.1
Cc1cc(C(F)(F)F)c(C#N)c(SCC(=O)Nc2nc3ccccc3s2)n1	i	17	0.73	32	-27	24	-6.2	-2	-2.3	-1.2
Cc1ccc(-c2csc3nc(SCC(N)=O)n(Cc4ccccc4)c(=O)c23)cc1	i	-2	0.73	.	.	.	0.1	18	2.6	6.5
CCOc1ccc2nc(NC(=O)CSc3nc(SC)ns3)sc2c1	+	-3	0.67	-24*	9.1*	5.6*	-0.8	6	2.3	5.5
CC(C)[C@H](NS(=O)(=O)c1ccc(Cl)cc1)C(=O)OCC(=O)c1c(N)n(C)c(=O)n(C)c1=O	i	.	0.68	.	.	.	.	.	0.9	0.5
O=C(OCC(=O)N1CCCCC1)c1cccc(NS(=O)(=O)c2ccccc2)c1	i	1	0.69	1	-3	-1.7	-0.1	11	2.6	-1.2

As entered above:
COc1ccccc1C(=O)NC(=O)COc1cc(Cl)ccc1Cl – T cruzi repl = -11
Cc1cc(C(F)(F)F)c(C#N)c(SCC(=O)Nc2nc3ccccc3s2)n1 – Bfl-1 A1 inh = -6.2

Other compounds follow:
SMILES	FGF22 binding	Beta cell apopt	Ecoli growth	rRNA inh HTS	rRNA inh HTS OD600	rRNA inh HTS RFP	Bfl-1 A1 inh	T cruzi repl	UCH37 DUB inh	AF4-AF9 inh
C=CCn1c(C)nc2c(cnn2-c2ccccc2)c1=O	i	-1	0.7	-1	0	-12	1.0	-11	-0.9	-1.7
COc1ccc(Br)cc1S(=O)(=O)NCc1ccccn1	i	.	0.63	9	10	0.6	-0.3	-11	-0.4	1.0
CCc1ccc(C(=O)N2CCCN(C)CC2)s1	i	-8	.	16	12	-0.3	0.2	1	.	-1.2
O=C(CCS(=O)(=O)c1cccs1)Nc1ccc(C(=O)NCc2cccs2)cc1	.	-4	0.73	.	.	.	0.3	-10	3.0	.
Cc1ccc(CNC(=O)Cn2ccc3cc(S(=O)(=O)N4CCCCCC4)ccc32)cc1	i	-4	0.65	4	4	0.4	1.1	-13	-0.1	-1.9
c1cc(N2CCCC2)ccc1C(c1nnnn1C1CCCCC1)N1CCOCC1 (centres undefined)	.	-1	0.7	.	.	.	-0.8	20	1.8	.
Cc1ccc(SC(C)C(=O)Nc2c(C)n(C)n(-c3ccccc3)c2=O)cc1 (centres undefined)	.	.	0.67	.	.	.	0.3	-20	3.0	.
CCn1nc(C)cc1C(=O)N1CCCC(N2CCN(Cc3ccc4c(c3)OCO4)CC2)C1 (centres undefined)	i	1	0.66	6	6	0.6	0.0	9	3.5	1.1
COc1cccc(C(=O)NCC(=O)OCC(=O)C(C)(C)C)c1	i	1	0.68	13	13	1.8	1.4	7	0.4	-1.5
CCNC(=S)N(CCc1ccc(S(N)(=O)=O)cc1)C1CC(=O)N(c2ccccc2)C1=O (centres undefined)	i	.	0.71	-7	-11	-0.8	0.0	-33	2.9	0.6
COc1ccc2oc(C(=O)OCC(=O)N(CCC#N)c3ccccc3)c(C)c2c1	i	1	0.71	16	11	1.0	0.3	10	-36	-2.6
O=C(Cc1ccccc1)Nc1ccc(N2CCOCC2)cc1	.	1	0.69	13	9	-2.7	-7.6	-3	1.6	-0.5
Cc1cc2cc(C(c3nnnn3Cc3ccccc3)N3CCc4ccccc43)c(=O)[nH]c2cc1C (centres undefined)	.	5	0.72	.	.	.	0.5	29	-1.9	.
CCCC12CN3CC(C)(CN(C1)C3c1cccs1)C2=O (centres undefined)	i	0	0.71	8	5	-0.3	-0.1	7	2.3	0.7
CC(Cl)C(=O)NN=C(c1ccccc1)c1ccccc1 (centres undefined)	i	-7	0.7	1	0	-3.3	-0.5	0	0.2	-9.8
COc1ccc2c(c1OC)C(=O)N1c3ccccc3COC21 (centres undefined)	.	4	0.73	.	.	.	-5.4	-7	1.8	.
O=C1CSc2cc(Cl)ccc2N1	i	.	0.68	0	5	-7.3	.	.	0.2	-0.7
COCCCN1CN=C(Nc2nc3ccccc3o2)NC1	i	-5	0.7	12	2	-2.8	-0.1	-8	-20	-0.3
CCOc1ccccc1NC(=O)c1ccc(C(=O)Nc2ccccc2OCC)nc1	i	1	0.7	8	14	1.8	0.1	-13	-4.6	5.2
CCOc1ccc(CCNc2ccc3nnc(-c4ccccc4)n3n2)cc1OCC	i	3	0.77	0	11	1.6	-0.6	26	5.0	2.0

Profiles, quoted from the list:
Shown for Cc1cc2cc(C(c3nnnn3Cc3ccccc3)N3CCc4ccccc43)c(=O)[nH]c2cc1C (centres undefined) → FGF22 binding: .; Beta cell apopt: 5; Ecoli growth: 0.72; rRNA inh HTS: .; rRNA inh HTS OD600: .; rRNA inh HTS RFP: .; Bfl-1 A1 inh: 0.5; T cruzi repl: 29; UCH37 DUB inh: -1.9; AF4-AF9 inh: .
Shown for CCOc1ccc(CCNc2ccc3nnc(-c4ccccc4)n3n2)cc1OCC → FGF22 binding: i; Beta cell apopt: 3; Ecoli growth: 0.77; rRNA inh HTS: 0; rRNA inh HTS OD600: 11; rRNA inh HTS RFP: 1.6; Bfl-1 A1 inh: -0.6; T cruzi repl: 26; UCH37 DUB inh: 5.0; AF4-AF9 inh: 2.0
Shown for COc1ccc2c(c1OC)C(=O)N1c3ccccc3COC21 (centres undefined) → FGF22 binding: .; Beta cell apopt: 4; Ecoli growth: 0.73; rRNA inh HTS: .; rRNA inh HTS OD600: .; rRNA inh HTS RFP: .; Bfl-1 A1 inh: -5.4; T cruzi repl: -7; UCH37 DUB inh: 1.8; AF4-AF9 inh: .

Later entries
SMILES	FGF22 binding	Beta cell apopt	Ecoli growth	rRNA inh HTS	rRNA inh HTS OD600	rRNA inh HTS RFP	Bfl-1 A1 inh	T cruzi repl	UCH37 DUB inh	AF4-AF9 inh
O=C(CCC(=O)N1CCN(c2ccc(O)cc2)CC1)c1ccc(Br)cc1	.	5	0.72	.	.	.	1.0	39	4.8	.
c1ccc(Cn2nnc(-c3ccccc3)n2)cc1	.	0	0.69	.	.	.	-0.9	-5	2.5	.
CCOC(=O)c1ccccc1NC(=O)/C=C/C(=O)O	i	2	0.71	11	20	5.4	-0.4	5	-7.0	-5.0
NNC(=O)C1=NOC2COC3(CCN(c4ncccn4)CC3)OCC12 (centres undefined)	i	3	0.69	13	4	6.0	-0.7	-10	-3.1	-2.7
Cc1cc(C(=O)COC(=O)CC(NC(N)=O)c2ccc(Cl)cc2)c(C)n1C (centres undefined)	i	0	0.71	0	1	5.5	-0.2	.	3.7	5.5
Cc1ccc(-n2ncc3c(=O)n(CC(=O)NC4CCCCC4)cnc32)cc1C	.	1	0.7	.	.	.	0.6	-21	0.6	.
CCCNc1nc(N)nc(-c2cc(Cl)ccc2OC)n1	.	-5	0.77	.	.	.	-0.1	0	2.4	.
O=S1(=O)CC(O)C(N2CCCCC2)C1 (centres undefined)	.	-2	0.75	.	.	.	0.5	-19	1.5	.
CCN(CC(=O)Nc1c(F)cccc1F)C(=O)CCOc1ccc(C)cc1	.	0	0.66	-4	-1	-1.7	0.1	-12	2.0	0.4
COC(=O)c1cc(C(=O)OCC(=O)c2ccc3c(c2)NC(=O)CO3)cc([N+](=O)[O-])c1	i	.	0.66	10	6	-9.7	.	.	0.7	3.0
Cc1cccc2cc(CN(Cc3cccnc3)C(=S)NCCCN(C)C)c(=O)[nH]c12	i	0	0.72	2	8	-0.1	0.0	-17	-3.7	0.8
COc1cccc2c1NC(C(=O)O)C1CC=CC21 (centres undefined)	.	0	.	.	.	.	-0.8	0	-0.4	.
CC(C)Cc1nnc(NS(=O)(=O)c2ccc(Cl)cc2)s1	i	-5	0.74	0	-6	-2.8	0.9	5	3.8	1.1
COc1ccc(NC(=S)NNc2ccc(S(=O)(=O)Nc3ccccc3C(=O)O)cc2[N+](=O)[O-])cc1	.	12	0.73	2	14	-5.6	-1.0	5	6.1	17
CCC(=O)N1CCc2cc(Br)cc(S(=O)(=O)N3CCC(C(=O)NCCCOC(C)C)CC3)c21	i	4	0.67	-6	-7	2.4	-0.7	5	5.8	0.1
COc1ccc(Nc2ncccc2C(=O)NCc2ccccc2)cc1	i	-1	0.66	-42	-62	-10	-1.4	0	2.5	-2.6
Cc1ccc2c(=O)n3c(nc2c1)C(Cc1ccccc1)NC(=O)c1cc(Cl)ccc1-3 (centres undefined)	i	-2	.	2	0	5.3	-0.4	.	.	-4.0
O=C(Nn1c(-c2ccncc2)nc2ccccc2c1=O)c1ccc(Br)cc1	i	.	0.69	-11	-10	-1.8	0.8	67*	0.2	0.7
Cc1ccccc1NC(=O)COC(=O)c1ccc2c(c1)C(=O)N(CCCN1CCOCC1)C2=O	i	.	0.69	5	8	0.0	.	.	2.7	-3.7
CC(OC(=O)Cn1[nH]c(=O)c2ccccc2c1=O)C(=O)Nc1ccc(Cl)cn1 (centres undefined)	i	0	0.68	5	10	0.0	0.5	.	2.6	-1.1
Cc1cccc(Nc2nc(-c3ccccc3)c(C(=O)Nc3cccnc3)s2)c1	i	7	0.72	-14	-10	-4.1	-0.6	29	-45	-4.7
Cc1nnc(SCC(=O)N2CCCCC2)s1	.	-1	0.69	.	.	.	0.7	1	0.4	.
CCOc1cccc(/C(O)=C2/C(=O)C(=O)N(CCOC)C2c2ccc(C)o2)c1 (centres undefined)	.	0	0.7	.	.	.	0.5	0	10.0	.
CCCCOc1ccc(-c2nnc(N)s2)cc1	i	-1	0.69	11	2	1.8	0.3	6	-6.8	4.7
CCCCNC(=O)N(O)C1N(CCCC)C(=O)N(CC(=O)OC)C1(C)C (centres undefined)	i	8	0.63	3	11	-4.0	-0.2	-12	-2.0	1.1
O=c1[nH]c2nc(Br)[nH]c(=O)c2[nH]1	i	.	0.68	14	11	2.8	.	.	-0.5	-18
Cc1ccccc1-n1ncc2c1CC(C)(C)CC2NC(=O)CCN1Cc2ccccc2C1=O (centres undefined)	i	0	0.68	-24*	-13*	2.1*	0.6	7	4.3	-5.6
CC(C)OCCCNC(=O)C(NC(=O)c1ccc(Cl)cc1)C(C)C (centres undefined)	i	-2	0.65	24	12	3.1	-0.2	-3	0.1	-3.8
